Screening data as filed in PubChem BioAssay.
Mtb H37Rv: Mycobacterium tuberculosis H37Rv growth inhibition, putative kinase inhibitor library, confirmatory dose response (AID 2842); M. tuberculosis H37Rv growth inhibition; higher % means a stronger effect; some inactives read as strong as hits; 5.2% of 24,000 active; one-dose inhibition, % at 10 µg/mL; IC90 in µg/mL for titrated hits;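 active = confirmed in a dose series; about a fifth of its hits are not listed in these tables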;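 note: bacteria incubated one week before Alamar blue readout; 0% = bacteria only wells and 100% = bacteria with high antibiotic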
Active calls of the source: *.

SMILES | Mtb H37Rv
COC(=O)c1c(NC(=O)c2ccc(-c3nc4ccccc4s3)s2)sc2c1CCN(C(C)=O)C2 | 1%
O=c1[nH]c2ccc(S(=O)(=O)Nc3cccc(C(F)(F)F)c3)cc2[nH]1 | -1%
O=C(CSc1ccc(-c2ccc(-n3ccnc3)cc2)nn1)NCc1ccccc1 | 8%
COc1ccc(-c2ccc(=O)n(CCNS(=O)(=O)c3ccc(OC)c(F)c3)n2)cc1 | -10%
COc1ccc(NC(=O)c2oc3ccccc3c2NC(=O)CC2CCCC2)cc1 | 7%
CCOC(=O)c1nn(-c2ccc(Cl)cc2)c(=O)c2c(NC(=O)c3cccc(Cl)c3)scc12 | 3%
Cn1c(=O)c2c(SCC(=O)Nc3ccc(F)cc3F)nc(-c3ccco3)nc2n(C)c1=O | 0%
CCC(CC)C(=O)Nc1c(C(=O)Nc2ccccc2F)oc2ccccc12 | 1%
CCc1ccc(N(CC(=O)Nc2ccccc2OC)C2=NC3CS(=O)(=O)CC3S2)cc1 (stereo unspecified) | 6%
Cc1ccc(N2C(=O)C(Cl)=C(NCCO)C2=O)c(C)c1 | 41%
Cc1cc(=O)[nH]c(SCC(=O)c2cccc3ccccc23)n1 | 29%
COc1ccc(CCNc2ncnc3nc[nH]c23)cc1OC | -2%
O=c1[nH]ncc(N/N=C\c2cccnc2)c1Cl | -3%
NC(=O)c1oc2ccccc2c1NC(=O)COc1ccccc1 | -3%
O=C(Nc1nnc(-c2ccc(F)cc2)o1)c1ccc(F)cc1 | 83%
Cc1nc2ccccc2c(=O)n1-c1ccc(NC(=O)c2ccc3c(c2)OCO3)cc1 | 6%
COCC(=O)Nc1nc2ccc(S(C)(=O)=O)cc2s1 | -13%
CCOC(=O)c1nn(-c2ccc(OC)cc2)c(=O)c2c(NC(=O)c3cccc4ccccc34)scc12 | -10%
CCOC(=O)c1c(NC(=O)CSc2nc3c([nH]c4ccccc43)c(=O)n2-c2ccccc2)sc2c1CCC2 | 5%
O=C(c1ccco1)N1CCN(C(=O)c2cc3cc(Br)cc(Br)c3oc2=O)CC1 | -5%
Cc1nc2sc(C(c3ccco3)N3CC(C)CC(C)C3)c(O)n2n1 (stereo unspecified) | 7%
CCc1ccc(C(=O)c2cn(Cc3cccc(F)c3)c3cc4c(cc3c2=O)OCCO4)cc1 | 81%
COCCn1c(Sc2nc(C)cs2)nc2c1c(=O)[nH]c(=O)n2C | 2%
COc1ccc2nc(-c3cccc(NC(=O)c4cccc(OC)c4OC)c3)cn2n1 | 5%
CCCc1cc(=O)[nH]c2nnc(SCc3ccc(C)cc3)n12 | -10%
COc1ccc(-n2c(=O)[nH]c3c(C(N)=O)nc(-c4ccccc4Cl)nc32)cc1OC | 3%
O=c1oc2ccccc2c(O)c1C(c1cccs1)c1c(O)c2ccccc2oc1=O | 47%
CCN=c1sc(C2=c3ccccc3=NC2=O)c(O)n1CC | -8%
Cc1cccc(NC(=O)CCCN2C(=O)/C(=C\c3ccco3)SC2=S)c1C | 84%
COC(=O)c1c(NC(=O)c2ccccc2F)sc2c1CC(C)(C)NC2(C)C | 2%
O=C(Nc1nnc(-c2ccc3c(c2)CCCC3)o1)c1ccccc1F | 0.93µg/mL*
COc1ccc(NC(=O)c2nnn(-c3ccccc3OC)c2C)cc1 | 13%
Cc1cc(C)cc(N2C(=O)C3N=NN(CC(=O)Nc4ccc(Br)cc4F)C3C2=O)c1 (stereo unspecified) | -5%
CCS(=O)(=O)c1ccc(C(=O)N(CCCN(C)C)c2nc3ccc([N+](=O)[O-])cc3s2)cc1 | -7%
COc1cc2c3nnc(-c4ccccc4)c-3cn(Cc3cccc(F)c3)c2cc1OC | 36%
Fc1cccc(Cn2cc3c(-c4ccc(Cl)cc4)nnc-3c3cc4c(cc32)OCCO4)c1 | 16%
CCN(CC)S(=O)(=O)c1ccc(C(=O)NCCc2cc3c(OC)ccc(OC)c3[nH]c2=O)cc1 | 5%
CCOC(=O)c1csc(NC(=O)Nc2ccccc2)n1 | -2%
CCOc1ccc(-c2nnc3c4cc5c(cc4n(Cc4ccc(Cl)cc4)cc2-3)OCCO5)cc1 | 3%
O=C(Nc1cc2c3c(c1)CCC(=O)N3CCC2)c1cccc(F)c1 | 8%
CCOc1ccc(C(=O)Nc2c(C(=O)Nc3ccccc3)oc3ccccc23)cc1 | -4%
COc1cccc(-c2nnc(NC(=O)c3ccc(Cl)cc3Cl)o2)c1 | 8.2µg/mL*
CCOC(=O)c1oc2ccccc2c1NC(=O)c1ccccc1C(F)(F)F | 9%
COc1ccc2cc(C(N)=O)c(=Nc3ccc(C(C)=O)cc3)oc2c1 | -1%
COc1ccc(NC(c2ccccn2)c2oc(CO)cc(=O)c2O)cc1 (stereo unspecified) | 47%
O=C(Nc1ccc2c(c1)OCCO2)C(=O)c1c[nH]c2ccccc12 | 11%
CCOc1ccc(-c2nnc3c4cc(OC)ccc4n(Cc4ccccc4F)cc2-3)cc1 | 19%
CCCCc1nc(SCC(=O)Nc2ccc(C(N)=O)cc2)c2c(=O)n(C)c(=O)n(C)c2n1 | -2%
O=C(CC1CCS(=O)(=O)C1)NNC(=O)Cn1cnc2ccccc2c1=O (stereo unspecified) | 13%
CN(C)S(=O)(=O)c1ccc(C(=O)NC2CC(=O)N(c3ccccc3)C2)cc1 (stereo unspecified) | 3%
Cc1ccnc(SCc2cc(=O)c(OC(=O)c3cc4ccccc4o3)co2)n1 | -3%
CC1=C(C(=O)Nc2ccccc2F)C(c2ccco2)C(C#N)=C(SCC(N)=O)N1 (stereo unspecified) | -8%
COc1ccc(CCNC(=O)COc2cccc3c2CCN(Cc2cccnc2)C3=O)cc1OC | -13%
COc1ccc2nc(-c3ccc(F)c(NC(=O)c4ccc(C)c(C)c4)c3)cn2n1 | 0%
Cc1nn(-c2ccccc2)c2sc(C(=O)NC(=S)NC3CCS(=O)(=O)C3)cc12 (stereo unspecified) | -7%
Cc1ccc(-n2ncc3c(=O)n(CC(=O)NCc4ccccc4)cnc32)cc1 | 6%
Cc1cc(SCc2ccc(Cl)cc2Cl)nc(=O)[nH]1 | -18%
COc1ccc(NS(=O)(=O)c2cc(C)c3[nH]c(=O)cc(C)c3c2)cc1 | -2%
CCCCCCCCn1c(SC(C)C(C)=O)nc2c1c(=O)[nH]c(=O)n2C (stereo unspecified) | 9%
Cc1ccc2nc(N=Nc3c(O)[nH]c4ccccc34)nc(-c3ccccc3)c2c1 | 14%
Following part
SMILES | Mtb H37Rv
CCCn1cc(C(=O)Nc2nc(C)cs2)c2nn(-c3ccccc3)c(=O)c-2c1 | 2%
Cc1cccc(NC(=S)NCCc2cc3ccc(C)cc3[nH]c2=O)c1 | 59%
COc1ccc2oc(=O)c(C(=O)OC(C)C(=O)c3ccc(Cl)cc3)cc2c1 (stereo unspecified) | -1%
N=C1Cc2ccccc2CN1c1cccc([N+](=O)[O-])c1 | -8%
O=C(c1cccnc1)N1C(=O)c2cccc3cccc1c23 | 15%
COc1ccc(-c2nc3cc(C)ccn3c2NC(=O)CCc2ccccc2)cc1 | 12%
COc1cccc(NC(=O)c2oc3ccccc3c2NC(=O)c2cc(Cl)ccc2OC)c1 | -3%
CN(C)c1ccc(/C=C2/SC(=S)N(NC(=O)c3ccc([N+](=O)[O-])cc3)C2=O)cc1 | -10%
COc1ccc(-c2ccc(=O)n(CCNC(=O)c3cccc(C(F)(F)F)c3)n2)cc1 | 7%
CCc1ccc(C(=O)c2cn(Cc3ccccc3)c3cc(OC)c(OC)cc3c2=O)cc1 | 8%
O=C(CSc1ncnc2c1nnn2Cc1ccccc1F)NC1CCCCC1 | 0%
O=C(Nc1nnc(-c2cccc([N+](=O)[O-])c2)s1)c1cc(Br)ccc1Cl | 0%
COc1ccc(C(c2sc3ncnn3c2O)N2CCN(CCO)CC2)cc1OC (stereo unspecified) | -5%
COc1cccc2sc(NC(=O)c3ccc(N4C(=O)CCC4=O)cc3)nc12 | 11%
CCOC(=O)C1CCN(C(c2ccccc2Cl)c2sc3nc(C)nn3c2O)CC1 (stereo unspecified) | 0%
CC(=O)Nc1ccc(NC(=O)CSc2ccc(S(=O)(=O)C(F)(F)F)cc2[N+](=O)[O-])cc1 | 4%
Cc1ccc(CNC(=O)c2nnn(Cc3cccc(F)c3)c2N)cc1 | 2%
Cc1ccc(-c2csc(NC(=O)c3ccc(S(=O)(=O)N4CCCC(C)C4)cc3)n2)c(C)c1 (stereo unspecified) | 10%
O=C(Nc1nnc(-c2ccc(Br)cc2)o1)c1ccc2ncsc2c1 | 68%
O=C(COC(=O)c1ccc2c(c1)C(=O)N(c1ccccc1Cl)C2=O)Nc1ccccc1 | 9%
COc1cc(OC)cc(C(=O)Nc2cccc3c2C(=O)NC3=O)c1 | -7%
COc1ccc(CNC(=O)NC2CC(=O)N(c3cccc(F)c3)C2)cc1 (stereo unspecified) | 3%
O=C(Nc1c(C(=O)Nc2ccc(Cl)cc2)oc2ccccc12)c1ccccc1 | 6%
CCCC(C)C1C(C#N)=C(N)Oc2n[nH]c(-c3ccccc3)c21 (stereo unspecified) | 8%
CCC(=O)NNc1ncnc2c1cnn2-c1ccc(Cl)c(Cl)c1 | 4%
O=C(Cn1cnc2c(cnn2-c2ccccc2)c1=O)Nc1cccc([N+](=O)[O-])c1 | 7%
O=C1NC(=O)C(CC(=O)N2CCCCC2)N1 (stereo unspecified) | -6%
CCC(Sc1nc(N)c(NC(=O)c2ccc(OC)c(OC)c2)c(=O)[nH]1)C(=O)OC (stereo unspecified) | -13%
C=C(C)Cn1c(N2CCN(CC)CC2)nc2c1c(=O)[nH]c(=O)n2C | -2%
COc1ccc(Cn2cc(S(=O)(=O)c3ccc(Cl)cc3)c(=O)c3cc(OC)ccc32)cc1 | 13%
CN1CCN(Nc2nc3c(c(=O)[nH]c(=O)n3C)n2Cc2ccc(F)cc2)CC1 | -2%
O=C(Nc1nc(-c2cccnc2)cs1)c1ccc2ncsc2c1 | 1%
Cc1nc2c(ccc3nc(NC(=O)COc4ccc(Cl)cc4Cl)sc32)s1 | -4%
O=C(Cn1cc(S(=O)(=O)Cc2ccccc2)c2ccccc21)N1CCN(c2ccc(F)cc2)CC1 | 6%
Cc1ccc2cc(CCNC(=O)COc3ccccc3)c(=O)[nH]c2c1 | 15%
COC(=O)c1ccc(-c2csc(NC(=O)c3nc4ccccc4s3)n2)cc1 | -8%
Cc1ccc(NC(=O)CSC2=NS(=O)(=O)c3cc(F)ccc3N2)c(C)c1 | -14%
O=C(NCc1n[nH]c(=O)c2ccccc12)Nc1ccc2c(c1)OCO2 | 1%
O=C(Nc1c(C(=O)Nc2ccc(F)c(F)c2)oc2ccccc12)c1ccc([N+](=O)[O-])cc1 | -4%
Cn1c(SCc2cccc(F)c2)ncc(C(=O)Nc2ccccc2)c1=O | 2%
NC(=O)c1c(NC(=O)c2cc(Cl)ccc2Cl)sc2c1CCCC2 | 42%
COc1ccc2nc(Nc3ccccc3)sc2c1 | 79%
CCOC(=O)CNC(=O)CSc1ncnc2c1nnn2Cc1ccccc1F | 3.4µg/mL*
CCCC(=O)Nc1c(C(=O)Nc2ccccc2OC)oc2ccccc12 | 3%
Cc1c(C)n2c3c(=O)n(CCCO)c(=O)n(C)c3nc2n1-c1ccccc1F | -3%
Nc1nc(SCC(=O)NC2CCCC2)[nH]c(=O)c1NC(=O)c1ccco1 | -2%
CCCc1nc(SCc2ccccc2Cl)n[nH]1 | 18%
O=C(/C=C\c1ccc2c(c1)OCO2)Nc1nnc(-c2ccccc2)s1 | 2%
O=C(NC1CC(=O)N(c2ccc(F)cc2)C1)c1ccccc1Cl (stereo unspecified) | 0%
O=C(Nc1nnc(-c2ccc(F)cc2)o1)c1ccco1 | 2.8µg/mL*
O=C(Cc1ccccc1)Nc1nnc(-c2ccc3c(c2)CCCC3)o1 | 56µg/mL*
Cc1nnc(NC(=O)CSc2nnc(CNC(=O)c3ccccc3)n2-c2cccc(Cl)c2)s1 | 1%
Cc1ccc(NC(=O)c2cnc(SCC(=O)N3CCOCC3)n(C)c2=O)cc1 | 11%
O=C(Nc1nc2c(Cl)c(Cl)ccc2s1)c1cc2ccccc2oc1=O | 4%

Only part of the results is shown; count on the stated rates, not on these rows.
